Bioassay records as filed in PubChem.
BJeLR lethal: MLPCN primary cell-based screen for lethality selective to Ras in HRASV12 cells; BJeLR (HRASV12) viability, CellTiter-Glo ATP luminescence, 48 h; reference of the scale not given here; inhibition, % (concentration not given with the values); 300,000 tested, 0.17% active; AID 1554, 2009;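 active = replicate mean above 50%; inconclusive = above 50% but judged a plate artefact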;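 note: 50 nL library stock added to about 25 µL; numbers are from one replicate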
Mtb hypoxia rep: PubChem AID 1159583; M. tuberculosis hypoxia-regulated fluorescent reporter, fluorescence; fluorescence inhibition, % (no concentration beside the values); 300,000 tested, 0.1% active;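 active = 35 to 45% if threefold the growth effect, above 45% if 1.5-fold the growth effect; inactive = the rest, general growth blockers included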;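 note: wells of about 50 µL received 100 nL stock; 0% = vehicle wells and 100% = reference inhibitor wells; whole bacteria with a GFP reporter of the hypoxia response; strong numbers were not always called active; many hits fall short of the cut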
ugtP null kill: growth inhibition of ugtP-null S. aureus, primary screen, RN4220 ugtP deletion, OD600 | 16 h; some inactives read as strong as hits | growth inhibition, % (concentration not given with the values) | 330,000 tested, 0.54% active | AID 1259309, 2017;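 active = z-score under -3 and OD600 up to 0.15 on both plates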;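 note: plate controls were untreated wells for no effect and antibiotic for full effect; wells of about 80 µL received 100 nL stock; the first replicate is given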
PrP 5UTR inh: inhibition of PrP 5' UTR reporter expression. cell-based PrP 5' UTR mRNA reporter, plate reader. inhibition, % (concentration not given with the values). AID 488862, 2010. 340,000 tested, 0.35% active;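 active = every replicate at 50% or more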;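 note: 0 = median of the neutral control wells; tested in H4 reporter cells; numbers are from one replicate; inactives centre near -14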
RN4220 kill: growth inhibition of S. aureus RN4220, primary screen, OD600; 330,000 tested, 0.33% active; inhibition, % (no concentration beside the values); 16 h;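 active = z-score of -3 or lower and OD600 up to 0.18 on both plates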;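 note: plate controls were untreated cells for no effect and reference antibiotic for full effect; stock transfer was 100 nL into about 80 µL; one replicate is shown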
Bead autofluor: counter-screen for toxin protease inhibitors: compound fluorescence | compound autofluorescence counterscreen, microsphere flow cytometry; active compounds read high | fluorescence intensity (no concentration beside the values) | 360,000 tested, 3.1% active;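 active = at least 3 SD above the mean of all compounds, about 16000 in these data; inconclusive = too few beads counted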;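 note: 100 nL of 1 mM stock went into each well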
Mtb hypoxia rep growth: recorded beside Mtb hypoxia rep, whose call it bears; growth inhibition, %; measured here: M. tuberculosis growth (absorbance);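 0% = vehicle and 100% = reference antibiotic; read after six days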
* hit, by the source's call; ? = inconclusive; · = no result given.

SMILES,BJeLR lethal,Mtb hypoxia rep,Mtb hypoxia rep growth,ugtP null kill,PrP 5UTR inh,RN4220 kill,Bead autofluor
Cc1nn(C)cc1CNC(=O)c1cc2n(n1)C(C(F)(F)F)CC(c1cccs1)N2 (configuration not stated),3,2,2,-1,-30,2.8,11465
CC(=O)NCc1ccc(C(=O)COC(=O)COc2ccccc2)s1,·,2,11,-1,-6,3.4,3888
CCOC(=O)C1CCN(C(=O)C2CC(=O)N(c3ccc4c(c3)OCCO4)C2)CC1 (configuration not stated),1,2,3,3,-27,2.4,5377
FC(F)(F)c1ccc2c(c1)n(Cc1ccccc1)c1[n+]2CCCCC1,5,12,2,4,-22,3.2,20850*
Cc1ccc(S(=O)(=O)N(C)Cc2ccc(C(=O)N/N=C3\CCCC(=O)C3)cc2)cc1,0,·,·,·,-1,·,2343
Cc1cnc(NC(=O)CN2C(=O)C3CC=CCC3C2=O)s1 (configuration not stated),-3,10,1,12,-2,7.4,4326
COC(=O)CNc1nc(OC)nc(N(C)C)n1,-12,·,·,4,-29,0.8,5995
COc1ccc2c(c1)c(CCN1C(=O)c3ccccc3C1=O)cn2C(=O)c1ccco1,-3,3,2,-1,-20,1.2,12649
COc1cccc(-c2nn(-c3ccc(C)cc3)cc2C(=O)N2CCN(C3CCS(=O)(=O)C3)CC2)c1 (configuration not stated),·,11,-3,0,-13,2.7,3861
CC1=C(C(=O)Nc2ccccc2)C(c2ccc(C)o2)N2C(=O)CSC2=N1 (configuration not stated),17,·,·,-4,·,-1.4,·
OCC(CO)(CO)NCc1ccc(-c2ccccc2)cc1,3,·,·,·,-5,·,8719
COc1cccc(CN2CCC(C(=O)N3CCC(C)CC3)CC2)c1,-12,-5,12,-3,-22,-1.0,4523
C/C(=N\NC(=O)C1CCCN(S(=O)(=O)c2ccccc2)C1)c1ccccn1 (configuration not stated),4,·,·,·,27,·,3202
Cc1oc(-c2cccs2)nc1CN1CCN(Cc2ccc(F)c(F)c2)C(CCO)C1 (configuration not stated),-6,-4,-1,16,-1,5.1,3562
O=C(/C=C/c1ccccc1)N1CCN(c2ccccn2)CC1,1,11,9,4,-19,-0.3,9866
Cc1ccc2nc(Cl)c(/C=N/Nc3ccc(C(=O)O)cc3)cc2c1,-3,·,·,·,-49,·,4489
CCn1nccc1C(=O)Nc1ccccc1OC,-11,3,1,1,-21,3.8,3338
COC(=O)[C@]1(C)N[C@H](CN(C)C(C)=O)[C@@H]2C(=O)N(Cc3ccccc3)C(=O)[C@@H]21,·,-1,7,0,-7,0.2,3276
O=C(Nc1cc(Cl)ccc1Cl)c1ccco1,6,15,9,12,-20,2.7,3813
COc1cc(-c2nc(=S)[nH][nH]2)cc(OC)c1OC,-3,9,-6,-2,-7,-0.9,2542
O=C(O)C1=CC(c2cccs2)CC(OCCCCO)O1 (configuration not stated),·,-5,2,-3,·,3.1,·
Nc1c(C(=O)NCc2ccc(F)cc2)c2nc3ccccc3nc2n1CCCN1CCOCC1,2,3,5,-12,-14,-5.1,23744*
Cc1onc(-c2ccccc2)c1C(=O)N/N=C/c1cc(Br)c(O)c(Br)c1,-3,·,·,·,-6,·,4711
COc1ccc(OC)c(C(=O)c2ccc(C(=O)N3CCCCC3)cc2)c1,9,8,9,0,-19,0.1,4284
CCc1nnc(NC(=O)C2CC(=O)N(Cc3ccccc3)C2)s1 (configuration not stated),-2,7,20,4,-7,8.3,4818
CC(C)CN(CC(C)C)c1ccc(C=Nn2cnnc2)cc1[N+](=O)[O-],·,8,6,7,·,3.1,·
CCCCOc1ccc(-c2nnn(CC(=O)c3c[nH]c4ccccc34)n2)cc1,4,7,6,5,-6,5.8,3446
CCc1cccc(NC(=O)C2CC2c2ccccc2)c1 (configuration not stated),-8,14,6,10,-17,2.4,4084
Cc1nn(C(=O)c2nn(C)cc2Cl)c(C)c1Br,7,11,5,4,-12,3.4,2162
COc1ccc(-c2noc(CCCC(=O)NCC3CCCO3)n2)cc1 (configuration not stated),3,11,14,6,-49,-0.5,5484
CCC(C)(C)NC(=O)CN(C(=O)CNS(=O)(=O)c1ccccc1)c1ccccc1,10,·,·,-5,-20,3.1,5279
C=C(CC1CC(O)[C@]2(C)OC3CC4OC5C[C@]6(C)O[C@]7(C)CCC8OC9C[C@]%10(C)OC%11C(C)=CC(=O)OC%11CC%10OC9C[C@@H](C)C8OC7CC6O[C@]5(C)C/C=C\C4OC3CC2O1)C(=O)O (some centres not stated),9,4,6,-10,-5,-8.1,3711
CCOC(=O)Cc1csc(NC(=S)NC(=O)c2ccccc2)n1,0,0,-1,36,-13,1.7,2062
Cc1ccccc1C(=O)Nc1nnc(CC(=O)N/N=C/c2ccncc2)s1,-7,·,·,·,-33,·,3604
O=C(NC1CCCCCCC1)c1cnccn1,-5,·,·,5,-13,2.0,3924
CC(=O)Nc1ccc(NC(=O)C(C)c2cccc(C(=O)c3ccccc3)c2)cc1 (configuration not stated),11,9,12,-13,-25,2.4,2544
Cc1ccc(C)c(NC(=O)C2CCCN2C(=O)NC2CCCCC2)c1 (configuration not stated),-1,9,10,4,-14,0.6,4270
O=c1[nH]c(=O)n(C2CCCCC2)c(O)c1C1NCCc2ccccc21 (configuration not stated),1,·,·,12,1,3.9,2283
CC(NC(=O)c1c(O)c2ccccc2n(C)c1=O)c1ccccc1 (configuration not stated),-5,·,·,·,-29,·,3116
CC(C)[C@H](NC(=O)[C@@H]1Cc2c([nH]c3ccccc23)C2c3ccccc3C(=O)N21)C(=O)N1CCC[C@@H]1C(=O)O (some centres not stated),0,·,·,8,-1,4.3,4022
Cc1oc(-c2ccc(Cl)cc2)nc1CS(=O)CC(=O)NCCCN(C)C1CCCCC1 (configuration not stated),4,7,7,4,-17,3.2,4547
CCCn1c2ccccc2c2nnc(SCc3[nH]c(=O)[nH]c3C(=O)CCCCC(=O)OCC)nc21,11,4,8,1,-11,2.7,2312
O=C(NC1CCN(c2ncccn2)CC1)c1ccccc1F,-5,4,-3,-3,-10,-0.9,3083
CN(C1=NC(=O)C(CC(=O)Nc2ccc(Br)cc2)S1)c1ccc(O)cc1 (configuration not stated),-7,7,10,3,1,3.0,9375
COc1ccc(NC(=O)COC(=O)C23CC4CC(CC(Cl)(C4)C2)C3)c(OC)c1,5,13,1,8,-26,5.0,5662
CCOC(=O)c1[nH]c2ccc(OC)cc2c1NC(=O)c1ccc2c(c1)OCO2,5,2,23,-12,-12,4.8,4558
Cc1ccc(/C=N/N2C(=O)c3ccccc3NC2c2ccc(C)cc2)cc1 (configuration not stated),3,·,·,·,-93,·,2106
CCC(=O)Nc1ccc(NC(=O)c2ccc3c(c2)OCO3)cc1,8,6,5,-9,17,3.1,2244
CCn1c(SCC(=O)NN=Cc2cccs2)nc2ccccc21,·,11,7,8,·,4.2,·
CC(C)C[C@H](NC(=O)c1nc[nH]c1C(=O)NC1CCNCC1)C(=O)OCc1ccccc1,9,·,·,·,-22,·,3554
COc1cc(CC(=O)OCC(=O)NCCc2ccc(S(N)(=O)=O)cc2)cc(OC)c1OC,·,1,-3,-2,-23,-2.0,3639
Cc1ccsc1C=NNC(=O)c1ccncc1,·,-1,9,-1,·,3.1,·
CC1CCN(c2ncnc3ccccc23)CC1,-2,15,20,10,-7,5.1,3872
O=C(Oc1ccc2ccc(O)cc2c1)c1ccccc1Cl,-5,13,10,18,-67,12,3150
CC(C)(C)OC(=O)NCC(=O)NCC(=O)OCc1ccccc1,-10,·,·,13,-26,-2.8,2521
CC(C)(C)c1ccc(OCc2ccc(C(=O)Nc3cccnc3)o2)cc1,5,2,8,5,-73,-7.9,6087
CSc1ccccc1NC(=O)c1csc(C)c1,-1,9,3,0,-13,9.2,?
Cc1ccccc1OCC(=O)O/N=C(\N)Cc1ccc(Cl)cc1,1,·,·,·,-7,·,3212
O=C1C2C(c3ccc(Cl)cc3)N3C(=O)N(c4cccc(F)c4)C(=O)[C@@]3(Cc3ccccc3)C2C(=O)N1C1CCCCC1 (some centres not stated),·,13,6,-23,·,-1.0,·
CCN(CC)CCNC(=O)C12CC3CC(C)(CC(C)(C3)C1)C2,-1,2,4,5,-7,3.5,7285

The list continues.
SMILES,BJeLR lethal,Mtb hypoxia rep,Mtb hypoxia rep growth,ugtP null kill,PrP 5UTR inh,RN4220 kill,Bead autofluor
O=C(O)CN1C(=O)CCS(=O)c2ccccc21 (configuration not stated),-5,·,·,2,-11,1.4,4194
CCOC(=O)c1c(N=CC2=C(O)CC(C)(C)CC2=O)sc(C)c1C,·,0,-1,-4,·,3.7,·
CCCCC(=O)NN=C(C)C1=C(C)C(C)(C)OC1=O,·,-1,12,3,·,1.2,·
O=C(O)c1ccc(NN=C/C=C/c2ccccc2[N+](=O)[O-])cc1,·,4,2,0,·,7.1,·
Cc1ccc(-c2nc(N)n(C(=O)Cc3ccccc3)n2)cc1,0,·,·,-8,-10,-2.6,4091
[O-]/[N+](=N\Nc1ccc(Cl)cc1)c1ccccc1,·,11,3,-1,-54,6.0,3032
CC(=O)c1ccc(NC(=O)C2=CC(c3ccc4c(c3)OCO4)=NS(=O)(=O)N2C)cc1,1,-6,-11,-5,-4,1.6,5545
COc1ccc(C(=O)NN=Cc2ccc3cccc(O)c3n2)cc1,·,-7,10,-13,·,-1.9,·
COc1ccc(NC(C)=O)cc1NC(=O)c1cccc(S(=O)(=O)N2CCc3ccccc32)c1,·,10,5,4,-12,3.2,?
O=C(CC1CCCCC1)NCc1ccccc1,-4,·,·,7,-44,-0.3,3672
O=c1[nH]nc(CNc2ccc(C(F)(F)F)cc2)c2ccccc12,-4,7,9,-7,1,-1.5,2002
CC(=O)NN1C(=O)/C(=C/c2ccc(Br)o2)SC1=S,-10,·,·,7,-22,5.7,2637
COC(=O)c1nccc2c1[nH]c1ccccc12,4,·,·,-9,-22,8.1,5969
CCN(CC(=O)Nc1c(F)cccc1F)C(=O)c1ccc(OCC(=O)N2CCOCC2)c(OC)c1,·,-9,0,3,-12,2.6,?
CN(CCc1ccccn1)c1ncnc2[nH]ncc12,·,·,·,-2,-12,0.1,3731
COc1ccc(CN(C)CC(=O)Nc2cc(OC)c([N+](=O)[O-])cc2C)c(OC)c1,-8,11,11,0,-53,4.9,2442
Cc1cc(C(=O)CSc2nncs2)c(C)n1Cc1ccco1,3,6,5,2,-16,4.2,3354
COc1ccc(/C=N/N(C)C2=NS(=O)(=O)c3ccccc32)cc1,-3,·,·,·,9,·,3967
Cc1ccc(NC(=O)c2cccnc2)c([N+](=O)[O-])c1,-12,3,3,0,-16,4.3,4244
S=c1[nH]c2ccc3ccccc3c2[nH]1,1,8,-13,3,-10,3.7,2543
O=C1OCCN1C(=O)[C@H]1[C@H](c2ccc(F)cc2)C(c2ccc(F)cc2)=NN1c1ccccc1,-3,·,·,·,-22,·,3494
Cc1oc2nc(SCC(=O)NC3CCCCC3)nc(N)c2c1C,-1,·,·,11,4,5.0,3758
N#C/C(=C\c1c(N2CCCCC2)nc2ccccn2c1=O)C(=O)NCc1ccco1,-3,9,1,2,-1,4.7,6516
Cc1ccc(-c2nn(C)c(=O)c3ccccc23)cc1CNC(=O)c1ccco1,6,6,9,0,3,4.9,3425
Cn1c(=O)[nH]c(=O)c2c1nc(NN=C/C(Br)=C/c1ccccc1)n2CCO,·,0,-5,7,·,0.4,·
N#C/C(=C(/O)CCCl)c1ccccn1,-4,4,1,2,-6,1.2,2518
CC(C)(C)c1ccccc1OCC(=O)NCc1ccccc1,0,23,16,14,-6,3.7,4188
O=C(Nc1cccc(/C=C/c2ccccn2)c1)c1ccc(-n2cncn2)c([N+](=O)[O-])c1,-4,-2,9,-16,-5,-7.9,5381

Two neighbouring entries from above, for reference:
SMILES,BJeLR lethal,Mtb hypoxia rep,Mtb hypoxia rep growth,ugtP null kill,PrP 5UTR inh,RN4220 kill,Bead autofluor
Cc1ccc(-c2nn(C)c(=O)c3ccccc23)cc1CNC(=O)c1ccco1,6,6,9,0,3,4.9,3425
Cn1c(=O)[nH]c(=O)c2c1nc(NN=C/C(Br)=C/c1ccccc1)n2CCO,·,0,-5,7,·,0.4,·

An unsorted share of the library. Share with any hit: about 4%.
